High-throughput results as filed in PubChem BioAssay.
Vaccinia Venus: qHTS for Stage-Specific Inhibitors of Vaccinia Orthopoxvirus: Venus Reporter Primary qHTS; Vaccinia virus Venus reporter expression, fluorescence; Potency, µM (titrated, usually from 36.5 µM), without a hit: top-dose activity change, negative = inhibition, usual class: inhibitors; hit rate 0.46% among 330,000; active means well fitted inhibition curve with a large enough effect; inconclusive means small, poorly fitted or top-dose-only effect; inactive means no such curve, though single readings can be large or run the other way; tested in A549 cells; also: nearly all actives have a fitted effect of over 30% in size; inactives centre near -10
VACV mCherry inh: qHTS for Stage-Specific Inhibitors of Vaccinia Orthopoxvirus: mCherry Reporter Primary qHTS | Vaccinia virus mCherry reporter infection, fluorescence; about a quarter of the inactives have no number | Potency, µM (titrated, usually from 36.5 µM), inactives show at the highest dose activity change, negative = inhibition, actives largely listed as inhibitors | hit rate 0.63% among 310,000 | AID 720579, 2013; active = well fitted inhibition curve with a large enough effect; inconclusive = small, poorly fitted or top-dose-only effect; inactive = no such curve, though single readings can be large or run the other way; tested in A549 cells; also: nearly all actives have a fitted effect of over 35% in size; inactives centre near -10
* hit, by the source's call; i = inactive; ? = inconclusive; . = not tested or not shown; [ ] = remark or other dose. % is scaled to controls: 0 for no effect and ±100 for the full control effect; potency is read from the fitted curve at half-maximal effect.

SMILES	Vaccinia Venus	VACV mCherry inh
C[C@H]1CCCCO[C@H](CN(C)Cc2ccccc2)[C@@H](C)CN([C@@H](C)CO)C(=O)c2cc(NC(=O)CCC(F)(F)F)ccc2O1	-16.4%	i
N#CC12CCCCC1CC1CCCCC1(C#N)N2CCO (centres undefined)	-5.5%	.
Cc1cc(C)cc(NC(=S)N(CCN2CCCCC2)Cc2ccco2)c1	-9.1%	-8.2%
CC(C)Nc1nc(C#N)nc(NC(C)C)n1	-16.5%	-17.5%
O=C(COc1ccccc1)NCC(c1ccco1)N1CCN(c2ccc(F)cc2)CC1 (centres undefined)	-15.2%	?
CCc1sc(C(=O)N(CCOC)c2c(N)n(Cc3ccccc3)c(=O)[nH]c2=O)cc1C	-6.8%	-28.9%
Cc1ccc(Cl)cc1NC(=O)Cn1c(=O)n(CCC(=O)N2CCc3ccccc3C2)c(=O)c2ccccc21	-10.1%	-25.2%
Cc1cccc(NC(=O)CN2C(=O)CSC2=O)c1	3.1%	1.6%
COc1ccc(Nc2nnc(C)c(=O)[nH]2)c(OC)c1	-4.1%	-11.7%
O=C(CCC1CCCCC1)NCCN1C2=NC[C@H](Cc3ccc(O)cc3)N2C[C@H]1Cc1ccc(O)cc1	-10.6%	?
C[C@@]12C(=O)OC(=O)[C@@]1(C)C1CCC2O1	?	?
N#Cc1cc2c(nc1SCC(=O)N1CCOCC1)CCCCC2	-2.9%	i

Among those listed so far, 3 have a cyano group.
SMILES	Vaccinia Venus	VACV mCherry inh
N#CC12CCCCC1CC1CCCCC1(C#N)N2CCO (centres undefined)	-5.5%	.
CC(C)Nc1nc(C#N)nc(NC(C)C)n1	-16.5%	-17.5%
N#Cc1cc2c(nc1SCC(=O)N1CCOCC1)CCCCC2	-2.9%	i

Exported with two lines to a compound: part of the list above.
Values run as follows: Vaccinia Venus | VACV mCherry inh
COc1ccc(Nc2nnc(C)c(=O)[nH]2)c(OC)c1
 : -4.1% | -11.7%
N#Cc1cc2c(nc1SCC(=O)N1CCOCC1)CCCCC2
 : -2.9% | i
Cc1cccc(NC(=O)CN2C(=O)CSC2=O)c1
 : 3.1% | 1.6%
Cc1ccc(Cl)cc1NC(=O)Cn1c(=O)n(CCC(=O)N2CCc3ccccc3C2)c(=O)c2ccccc21
 : -10.1% | -25.2%
C[C@H]1CCCCO[C@H](CN(C)Cc2ccccc2)[C@@H](C)CN([C@@H](C)CO)C(=O)c2cc(NC(=O)CCC(F)(F)F)ccc2O1
 : -16.4% | i
C[C@@]12C(=O)OC(=O)[C@@]1(C)C1CCC2O1
 : ? | ?

Continuation:
SMILES	Vaccinia Venus	VACV mCherry inh
CC(C)(C)c1ccc(C(=O)NCCC(=O)Nc2ccc(S(=O)(=O)Nc3nccs3)cc2)cc1	6.4%	-14.6%
Clc1ccc(C(c2cccs2)N2CCNCC2)cc1 (centres undefined)	-15.2%	i
O=S1(=O)c2ccccc2N(Cc2ccc(Cl)cc2F)c2ccccc21	-5.4%	i
COc1ccc(S(=O)(=O)N2CCOCC2)cc1C(=O)N1CCCCCC1	-14.8%	-3.4%
Cc1cc(Br)ccc1NC(=O)CNC(=O)CN(C)C1CCS(=O)(=O)C1 (centres undefined)	-3.5%	-5.7%
O=C(NCCCN1CCOCC1)c1ccccc1N1C(=O)[C@@H]2Cc3c([nH]c4ccccc34)C(c3ccc(F)cc3)N2C1=O (some centres undefined)	?	?
COC(=O)C1=C(C)Nc2nnnn2C1c1ccccc1Cl (centres undefined)	10.4%	.
S=c1nc(C2CCCCC2)n(-c2ccccc2)[nH]1	-3.0%	-16.0%
COc1ccc(NC(=O)CSc2ccccc2)cn1	3.6%	-28.3%
CCN(CC)CCO	-12.4%	-2.0%
CN(C)c1oc(-c2ccc(OCc3ccccc3)cc2)nc1C#N	-13.2%	i
COc1cc(OC)c2ccc(=O)oc2c1C(CCN1CCOCC1)c1ccc2c(c1)OCO2 (centres undefined)	-22.8%	i
CCOC(=O)C1=C(O)C(=O)N(c2ccc(S(N)(=O)=O)cc2)C1c1ccc(Cl)cc1 (centres undefined)	-12.2%	.
CC(/C=C/c1ccccc1)=N/NC(=O)c1cnccn1	-23.7%	-27.8%
CCCCn1c(N)c(N(CCOC)C(=O)c2cc(-c3ccc(OC)cc3)nc3ccccc23)c(=O)[nH]c1=O	-12.6%	i
CC(C)c1nn2c(=O)cc(COC(=O)c3cccs3)nc2s1	10.2%	7.3%
COc1cccc(CNc2ccc3[nH]c(=O)[nH]c3c2)c1OCc1ccc(F)cc1	-18.3%	?
O=C(CSc1nnc(Cc2csc(Nc3cccc(Cl)c3)n2)o1)N1CCc2ccccc21	?	-25.3%
COc1ccc(-c2ccnc3cc(C(=O)O)nn23)cc1	-6.0%	-6.0%
O=C(NCc1ccco1)c1ccc2c(c1)OCCO2	-18.3%	i
O=C(N/N=C/c1cccc(F)c1)c1c(O)c2c([nH]c1=O)CCCC2	-11.6%	-16.5%
CC(C)NC(=O)CCc1nc2cccnc2n1-c1ccccc1	-21.4%	i
C=C(C)Cn1c(SCC(=O)Nc2ccccc2C)nc2sc3c(c2c1=O)CCCC3	-9.4%	-7.1%
Brc1ccccc1OCCNCc1ccccc1	-9.3%	-21.1%

Looked up one by one from the list above, five records:
SMILES	Vaccinia Venus	VACV mCherry inh
O=C(CSc1nnc(Cc2csc(Nc3cccc(Cl)c3)n2)o1)N1CCc2ccccc21	?	-25.3%
Brc1ccccc1OCCNCc1ccccc1	-9.3%	-21.1%
C=C(C)Cn1c(SCC(=O)Nc2ccccc2C)nc2sc3c(c2c1=O)CCCC3	-9.4%	-7.1%
CC(C)NC(=O)CCc1nc2cccnc2n1-c1ccccc1	-21.4%	i
COc1cccc(CNc2ccc3[nH]c(=O)[nH]c3c2)c1OCc1ccc(F)cc1	-18.3%	?

Next part
SMILES	Vaccinia Venus	VACV mCherry inh
O=C(NNc1ccc(Cl)cc1)C1CCC1	-27.7%	-8.8%
CCOC(=O)c1[nH]c2ccccc2c1NC(=O)c1ccc(S(=O)(=O)N(C)C)cc1	-4.2%	16.5%
Cc1c(NC(=O)c2cc3nc(-c4ccccc4)cc(C)n3n2)c(=O)n(-c2ccccc2)n1C	-16.5%	.
CCOC(=O)c1[nH]c(C)c(CCC(=O)N2CCN(c3cccc(OC)c3)CC2)c1C	-5.0%	-10.3%
COc1cc(OC)c(NS(=O)(=O)c2ccc3c(c2)NC(=O)CO3)cc1Cl	-4.5%[7.34 µM]	-5.7%[7.34 µM]
c1ccc(CN2CCN(Cc3ccc4c(c3)OCCO4)CC2)cc1	-8.1%	.
Cc1ccc(NC(=O)CN2C(=O)N/C(=C/c3ccc(C)o3)C2=O)cc1	-12.1%	.
CC(C)CCCN1CCN=C1Nc1ccccc1	7.3%	i
Cc1cnc(CNC(=O)CC2C(=O)NCCN2Cc2ccccc2C(F)(F)F)cn1 (centres undefined)	-4.4%	i
Cc1ccc(C2=NC(C)(C)N=C2SCC(=O)Nc2ccc(Cl)cc2)cc1	?	?
CC(C)(C)C(=O)N1N=C(c2ccc(NS(C)(=O)=O)cc2)CC1c1cccs1 (centres undefined)	-24.2%	-7.1%
COc1ccc(N2CCN(C(=O)CSc3nnc(C)c(=O)[nH]3)CC2)cc1	-6.7%	i
CS(=O)(=O)NCc1ccccc1Br	-8.9%	i
Cc1cc(F)ccc1-c1cc(C(=O)N2CCN(c3ccncc3)CC2)[nH]n1	-1.6%	3.5%
Cc1ccccc1CN1c2ccccc2-c2nc(SCC(=O)c3ccccc3)ncc2S1(=O)=O	-10.5%	-21.2%
CCn1ncc(/C=N\NC(=O)Cc2ccc([N+](=O)[O-])cc2)c1C	-10.4%	-16.6%
O=C(CN1CCOCC1)Nc1ccc(Br)cc1C(=O)c1ccccc1	-14.7%	-25.1%
COc1ccccc1NC(=O)C1CC(=O)N(c2ccc(F)cc2)C1 (centres undefined)	-13.8%	-29.2%
O=C(CC1C(=O)N(c2ccc(F)cc2)C(=O)N1Cc1ccc2c(c1)OCO2)Nc1ccc(Cl)cc1 (centres undefined)	-14.1%	-17.0%
O=C(NCC(c1ccco1)N1CCN(c2ccccc2)CC1)c1ccco1 (centres undefined)	-5.9%	i
CCS(=O)(=O)N1CCC(C(=O)NCCN2CCOCC2)CC1	-6.5%	-13.3%
COc1ccc(NC(=O)c2ccsc2NC(C)=O)cc1	-7.2%	-4.0%
COC(=O)c1sc2nc3c(cc2c1N)COC(C)(C)C3	?	-24.7%
COc1cc(NC(=O)CSc2nc(C)cc(C)n2)cc(OC)c1OC	-16.2%	i
CN(Cc1ccc(-n2cccn2)cc1)Cc1cn(C)nc1-c1ccccc1F	-19.5%	i
COc1ccccc1NC(=O)CSc1nnc(CSc2nc(C)cc(C)n2)o1	-15.3%	-4.7%
COC(=O)C(C(=O)OC)C1C=CCN(C(C)=O)C1 (centres undefined)	-6.8%	i
O=S(=O)(c1ccc(NCCCO)nc1)N1CCOCC1	-2.4%	-8.7%
CCn1c(=NC(=O)c2ccc3c(c2)OCCO3)sc2c(C)ccc(OC)c21	-3.8%[7.34 µM]	-6.5%[7.34 µM]
Cn1c2ccccc2c2c(C(=O)N3CCN(c4ccc(F)cc4)CC3)cn(C3CCCCC3)c(=O)c21	-17.8%	-18.6%
O=c1c(-c2ccc(Cl)cc2)cnc2n1CCS2	-1.6%	3.9%
O=C1C2CC=CCC2C(=O)N1c1ccc(NCCc2ccccc2)c([N+](=O)[O-])c1 (centres undefined)	-2.5%	-8.7%
O=C(COC(=O)CC1CCCC1)Nc1ccc(Br)cc1F	-19.9%	i
COC(=O)[C@@]1(Cc2ccc(OC)cc2)[C@H]2c3cc(C(=O)N4CCCC4)n(Cc4ccc(C)c(F)c4F)c3C[C@H]2CN1C(=O)c1ccccc1	-20.6%	-24.4%
O=C(O)CN1C(=O)CC(c2ccccc2)CC1=O	-6.1%	-7.4%
CCOc1ccc(C(=O)NCCCN2CCCC2=O)cc1	-1.5%	-11.2%
CN(Cc1nc2ccccc2n1C)c1ccccc1	-24.3%	-9.1%
Cc1ccc(NC(=O)CN(C)C(=O)COc2ccc(C(=O)c3ccc(F)cc3)cc2)cc1	-21.1%	-10.5%
COc1cccc(N2CCN(Cc3ncc(-c4ccccc4)o3)CC2)c1	-7.2%	-12.0%
CCCCCn1c(CCCNC(=O)c2ccccc2)nc2ccccc21	-5.3%	-10.3%
COc1ccc(C2N3CC4(C)CN2CC(c2ccccc2)(C3)C4=O)cc1OC (centres undefined)	-12.8%	-0.4%
O=C(Nc1ccc(N2CCCC2)cc1)c1ccc(Cl)cc1Cl	-0.2%	-5.3%
O=C(CN1C(=O)CC(c2ccco2)Sc2ccccc21)Nc1ccccc1F (centres undefined)	-19.2%	?
O=C(CC1C(=O)NCCN1Cc1ccc(Cl)c(F)c1)NC1CCCCC1 (centres undefined)	-17.7%	-9.5%
O=C(NCc1n[nH]c(=S)n1-c1ccc(F)cc1)c1ccco1	-13.0%	-9.3%
Cc1ccc(C2=N/C(=C\c3ccc(OS(=O)(=O)c4ccc(C)cc4)cc3)C(=O)O2)cc1	5.9%	-6.5%
CC(=O)NC(=O)c1cnn(-c2ccccc2)c1N	-11.6%	-4.1%
O=C(O)c1cccc2c1-c1ccc([N+](=O)[O-])cc1C2=O	-4.0%	-2.6%
Cc1cccc(OCCCC(=O)Nc2ccc(S(N)(=O)=O)cc2)c1	0.0%	-6.4%
Cn1c(=O)c2c(nc(N/N=C/c3ccco3)n2C)n(C)c1=O	-10.3%	-6.2%
COc1ccc(N2CC(NC(=O)C(c3ccccc3)c3ccccc3)CC2=O)cc1 (centres undefined)	-8.1%	-19.9%
Cc1ccc(N2C(=O)C3CCCN3C2=S)cc1 (centres undefined)	-10.4%	-3.7%
Cc1cc2oc(C(=O)Nc3ccc(S(=O)(=O)N(C)Cc4ccccc4)cc3)cc(=O)c2cc1C	-12.5%	-15.0%
Cc1ccn2cc(-c3ccc(NC(=O)c4ccco4)cc3)nc2c1	-16.5%	-30.2%
Cc1ccc(C)c(NC(=O)CN2CCCN(Cc3cccc(Cl)c3)S2(=O)=O)c1	-6.0%	-11.3%
O=C(N/N=C/c1ccccn1)c1cccc([N+](=O)[O-])c1	-9.7%	-5.9%
Cc1cccc(Nc2nnc(-c3ccc(N4CCOCC4)c([N+](=O)[O-])c3)c3ccccc23)c1	-27.1%	-12.8%

Outcome played no part in choosing rows. About 0.82% of those tested had a hit in this group.
